# RGS16-Gao: modulates binding between human RGS16 and Galphao; O15492+P09471; bead-based flow cytometry RGS16-Galphao binding, fluorescence; actives lie on both sides; binding response (% of control), % at 10 µM; 220,000 tested, 0.38% active; AID 1441;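 active = below 25% or above 175%, edge rows of some plates excepted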;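 note: Galphao activated by GDP with aluminum fluoride before binding; 100% = wells without compound and 0% = beads without RGS; some results beyond the cut were filed as inactive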
# GALR2 ag: agonists of human galanin receptor 2 (GALR2); O43603; GALR2-expressing cells, agonist activation read-out; activation, %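 (tested at 5 µM)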; 140,000 tested, 0.48% active; AID 803;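 active = above mean plus 3 SD of all compounds, about 5% in these data, not always enough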;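 note: 0% = vehicle buffer wells and 100% = reference agonist at full effect; tested in CHO reporter cells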
# PKD1 inh: blocks activity of human protein kinase D1; Q15139; PKD1 kinase fluorescence polarization assay; inhibition, %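 (about 10 µM by stock and volumes)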; 200,000 tested, 0.056% active; AID 797;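 active = inhibition of 50% or more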;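 note: controls were vehicle for no effect and a reference inhibitor for full effect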
# Target sequence (Q15139 whole entry, looked up): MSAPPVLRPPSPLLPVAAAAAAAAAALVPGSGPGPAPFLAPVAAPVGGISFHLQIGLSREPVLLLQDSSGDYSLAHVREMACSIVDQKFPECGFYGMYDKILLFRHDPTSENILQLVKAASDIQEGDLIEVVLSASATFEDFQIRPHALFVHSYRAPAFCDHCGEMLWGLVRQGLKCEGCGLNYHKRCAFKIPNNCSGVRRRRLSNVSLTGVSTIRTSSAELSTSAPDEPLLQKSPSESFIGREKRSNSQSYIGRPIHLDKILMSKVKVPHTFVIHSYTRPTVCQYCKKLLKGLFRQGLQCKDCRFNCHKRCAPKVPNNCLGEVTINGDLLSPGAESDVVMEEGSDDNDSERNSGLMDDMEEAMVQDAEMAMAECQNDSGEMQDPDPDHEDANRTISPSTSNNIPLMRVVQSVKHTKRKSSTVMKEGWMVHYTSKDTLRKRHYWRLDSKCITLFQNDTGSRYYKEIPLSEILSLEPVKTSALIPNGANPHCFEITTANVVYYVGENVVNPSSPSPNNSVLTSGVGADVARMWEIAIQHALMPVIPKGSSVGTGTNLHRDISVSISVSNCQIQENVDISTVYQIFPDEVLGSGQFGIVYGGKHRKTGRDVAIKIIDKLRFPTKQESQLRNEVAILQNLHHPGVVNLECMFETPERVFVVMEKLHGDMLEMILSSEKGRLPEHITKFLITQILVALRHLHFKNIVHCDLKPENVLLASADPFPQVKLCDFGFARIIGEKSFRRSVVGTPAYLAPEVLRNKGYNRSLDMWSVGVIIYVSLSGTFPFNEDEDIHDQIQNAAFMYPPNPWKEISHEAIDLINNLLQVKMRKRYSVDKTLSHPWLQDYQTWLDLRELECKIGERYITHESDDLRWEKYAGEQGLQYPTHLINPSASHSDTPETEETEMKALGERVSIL
# Insulin prom inh: TRM-6 insulin promoter activity inhibition; TRM-6 cells (human fetal islet line), insulin promoter-eGFP reporter, imaging; reporter expression induced with tamoxifen; inhibition, % at 2 µM; 130,000 tested, 0.9% active; AID 1273;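 active = inhibition above the mean plus 3 SD, with well images judged a real hit on visual review, cut at about 60% in these data, passing the limit was not always enough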
# HSV replic up: increases HSV replication in cells | HSV replication augmentation in cells, fold increase | maximum fold increase | 220,000 tested, 0.005% active | AID 1956;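 active = peak rise of 1.5-fold or more in the series; tested in PC3 cells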;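 note: first round at 10 µM; read as green reporter fluorescence; hits show the peak of a series up to 25 µM; 1 = signal of infected wells without compound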
# Insulin prom inh cell count: second read-out of Insulin prom inh, no call of its own (marks repeat the call); normalized cell count, %; measured here: cell count, toxicity; reference of the scale not given here;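 cells exposed to compound for 48 h; stained nuclei by imaging scaled within each plate; lower means fewer cells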
# HSV replic up primary fold: recorded beside HSV replic up, whose call it bears; fold increase; compound at 10 µM; measured here: primary screen fold increase 10 uM; tested in PC3 cells;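 GFP signal in the first replicate; 1 = infected wells without compound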
# Starred values were filed as active, the others as inactive; i = inactive; · = not tested or not shown; & = joins results of further samples.
SMILES,RGS16-Gao,GALR2 ag,PKD1 inh,Insulin prom inh,Insulin prom inh cell count,HSV replic up,HSV replic up primary fold
CC1Cc2ccccc2N1S(=O)(=O)c1cccc(C(=O)OCC(=O)NC2CCS(=O)(=O)C2)c1 (configuration not stated),6,-1.8,-3,-6,154,i,0.92
c1cnc2c(SCc3ccc(-c4nnco4)cc3)cccc2c1,103,-2.0,-9,·,·,i,0.93
COc1cc(NC(=O)CN(c2ccc(C)cc2)S(=O)(=O)c2c(C)n[nH]c2C)cc(OC)c1,114,-1.2,0,·,·,i,0.83
CC(=O)OCCCNc1cc(Sc2nc3ccccc3s2)c2nonc2c1[N+](=O)[O-],8.5*,-1.0,5,-27,71,i,1.2
COc1ccc(/C=C/C(=O)NC(=S)Nc2ccccc2C(=O)NC2CCCCC2)cc1,101,-3.0,6,-8,104,i,1.1
COc1ccc2c(CC(=O)Nc3nccs3)coc2c1,105,·,1,33,87,i,1
COc1ccc(OC)c(S(=O)(=O)N2CCc3ccccc32)c1,84,-2.9,-7,19,136,i,0.93
Cc1nc(NS(=O)(=O)c2ccccc2)sc1C(=O)NN,103,·,10,·,·,i,1.2
O=C(NCc1ccc(Cl)cc1)C1CCC(CNc2c(N3CCOCC3)c(=O)c2=O)CC1 (configuration not stated),101,·,·,·,·,i,0.99
O=C(OCC1OC2C(Oc3nc(=O)ccn32)C1O)c1ccccc1 (configuration not stated),103,-0.5,-8,·,·,i,0.99
N/C(=N\OC(=O)Cc1cccs1)c1ccccc1,98,-0.6,-2,-11,130,i,0.91
Cn1c(CN2CCCCC2)nc2cc([N+](=O)[O-])ccc21,103,·,-8,-24,138,i,1.1
NS(=O)(=O)c1cccc(NC(=O)CCSc2ccc(Cl)cc2)c1,102,-1.4,-4,10,75,i,0.85
COc1cc(Cc2ccc(N)c(OC)c2)ccc1N,63,-1.5,12,21,100,i,0.96
CC(=O)OCC1=C(C(=O)O)N2C(=O)C(NC(=O)CCn3nc(C)c(Cl)c3C)C2SC1 (configuration not stated),100,·,-4,·,·,i,1.2
CCOCCCNC(=S)Nc1cc(C)cc(C)c1,101,-0.6,1,-13,73,i,0.99
Cc1cc2cc(C)c(NCCNC(=O)c3ccccc3F)nc2cc1C,105,·,-3,·,·,i,0.91
Cc1ccc(Cl)cc1N1CCN(C(=O)c2ccc3nc[nH]c3c2)CC1,106,-0.9,-2,-26,111,i,0.99
Cc1nnc(SCc2nnc(-c3cccs3)o2)s1,100,·,-1,·,·,i,0.75
O=C(Nc1cccc(-c2nc3ccccc3s2)c1)c1ccc2c(c1)OCO2,102,-3.1,-8,·,·,i,0.88

# Complete entries as entered above.
# Profile of CC(=O)OCC1=C(C(=O)O)N2C(=O)C(NC(=O)CCn3nc(C)c(Cl)c3C)C2SC1 (configuration not stated) : RGS16-Gao: 100; GALR2 ag: ·; PKD1 inh: -4; Insulin prom inh: ·; Insulin prom inh cell count: ·; HSV replic up: i; HSV replic up primary fold: 1.2
# Profile of CC(=O)OCCCNc1cc(Sc2nc3ccccc3s2)c2nonc2c1[N+](=O)[O-] : RGS16-Gao: 8.5*; GALR2 ag: -1.0; PKD1 inh: 5; Insulin prom inh: -27; Insulin prom inh cell count: 71; HSV replic up: i; HSV replic up primary fold: 1.2

# The list goes on.
SMILES,RGS16-Gao,GALR2 ag,PKD1 inh,Insulin prom inh,Insulin prom inh cell count,HSV replic up,HSV replic up primary fold
CCn1c2ccccc2c2cc(NC(=O)COC(=O)c3cccc(S(=O)(=O)NC)c3)ccc21,100,0.6,-4,9,119,i,0.68
Cc1cccc(NC(=O)CSc2nnc(-c3cc(C)n(-c4ccccc4)c3C)o2)c1C,102,-1.2,0,-23,83,·,·
CCc1ccc(-c2cc(C(=O)N/N=C/c3c[nH]c4ccccc34)[nH]n2)cc1,103,·,7,·,·,i,0.63
CC(C)(C)Nc1nc(NC(C)(C)C)nc(-n2ccnc2)n1,98,-1.6,1,-348,73,i,0.88
N#C/C(=C(/O)CN1CCCC1)c1nc(-c2ccccc2)cs1,100,·,·,·,·,i,1.2
CCCN(CCC)CC(O)CN1C(=O)NC(C)(C)C1=O (configuration not stated),107,·,2,·,·,i,0.95
COC(=O)CNC(=O)c1ccc2c(c1)S(=O)(=O)c1ccccc1C2=O,106,-1.4,0,·,·,i,0.75
CCOC(=O)c1c2n(c3ccc(O)cc13)CCC2,100,-1.6,-6,-27,136,i,0.96
COc1ccc(O)c(/C=N/n2c(-c3ccco3)csc2=Nc2cccnc2)c1,86,0.7,-24,30,79,i,0.98
O=C(N/N=C/c1cc2c(cc1Br)OCO2)c1c[nH]c2ccccc12,94,·,-3,·,·,i,0.97
CC(=O)Nc1ccc2c(c1)nc(CCN1CCC(C)CC1)n2C,96,-0.5,-1,-3,77,i,0.89
Cn1c(=O)c2[nH]c(-c3ccccc3Cl)c(O)c2n(C)c1=O,109,-0.3,-3,64*,86*,i,1
N#CCc1ccc(NS(=O)(=O)c2ccc(C3CCCCC3)cc2)cc1,41,-1.7,-1,·,·,i,1.1
c1ccc2[nH]c(CN3CCN(c4ncnc5c4oc4ccccc45)CC3)nc2c1,100,-0.5,-7,-109,42,i,1
NC(=O)C1CC(=O)N(c2ccc(OCc3ccc(Cl)cc3)cc2)C1 (configuration not stated),105,·,-5,0,104,i,1
CC(C)COc1ccc(C(=O)Nc2ccc([N+](=O)[O-])cc2)cc1,101,·,1,·,·,i,0.92
Cc1cc(C)cc(C(=O)N(c2ccccn2)C(C)c2ccco2)c1 (configuration not stated),97,-1.6,0,-27,47,i,1.2
O=C(Nc1cccc2ncccc12)c1ccc(OCc2ccccc2)cc1,99,·,-8,42,96,i,0.94
CC(CCc1ccco1)NC(=O)Nc1cccc(F)c1 (configuration not stated),108,-1.6,-11,·,·,i,0.97
O=C(O)c1cn(Cc2ccccc2Cl)c2ccc(S(=O)(=O)N3CCOCC3)cc2c1=O,101,·,4,0,140,i,0.99

# A draw from above in order of SMILES length, rising.
SMILES,RGS16-Gao,GALR2 ag,PKD1 inh,Insulin prom inh,Insulin prom inh cell count,HSV replic up,HSV replic up primary fold
CCOC(=O)c1c2n(c3ccc(O)cc13)CCC2,100,-1.6,-6,-27,136,i,0.96
CC(C)COc1ccc(C(=O)Nc2ccc([N+](=O)[O-])cc2)cc1,101,·,1,·,·,i,0.92
COc1ccc(O)c(/C=N/n2c(-c3ccco3)csc2=Nc2cccnc2)c1,86,0.7,-24,30,79,i,0.98

# Next results:
SMILES,RGS16-Gao,GALR2 ag,PKD1 inh,Insulin prom inh,Insulin prom inh cell count,HSV replic up,HSV replic up primary fold
COC(=O)COc1ccc(Cl)cc1C1Nc2ccccc2C(=O)N1c1ccc(OC)cc1 (configuration not stated),114,-0.5,14,·,·,i,1.1
CCCCNc1nc2c(c(=O)n(C)c(=O)n2C)n1CCC,101,·,·,·,·,i,0.95
CCc1ccccc1NC(=O)c1ccc(Cn2cc([N+](=O)[O-])cn2)cc1,107,-0.6,-10,-38,44,i,0.88
CCN(CCO)C(=O)CC1C(=O)NCCN1Cc1c(F)cccc1Cl (configuration not stated),84,·,5,·,·,i,1
C=CCNC(=O)c1c(Cl)cccc1Cl,107,-0.1,-7,21,100,i,0.97
CC1CCC(NC(=O)Cn2c3c(c(-c4ccccc4Cl)cc2=O)CCC3)CC1 (configuration not stated),98,-1.3,-2,·,·,i,1.2
CCOC(=O)CC(Nc1nc(N2CCOCC2)nc(N2CCOCC2)n1)c1ccccc1Cl (configuration not stated),102,0.1,4,·,·,i,0.93
COC(=O)CCC(=O)OC1(C)C(=O)C2=CN(CCCOC(C)C)C(c3ccc(OC)cc3)=CC2=C(Br)C1=O (configuration not stated),89,·,·,·,·,i,0.98
Cc1nnc(-c2cnn(C)c2N)n1Cc1ccc(Cl)cc1,116,-2.5,-1,11,136,i,0.96
Cc1ccc(NC(=O)CN(C)C(=O)Cn2cc(C(F)(F)F)cc(Cl)c2=O)cc1,109,-2.9,-5,13,119,i,0.89
NC(=S)N/N=C/c1ccc2c(c1)OCCO2,89,·,-8,-80,80,i,0.95
COc1ccc(OC)c(NC(=O)CSc2nnnn2C)c1,97,·,-10,·,·,i,0.98
COc1ccc(C(NC(=O)c2ccco2)c2ccc(OC)c(OC)c2)cc1 (configuration not stated),99,-1.6,-9,0,149,i,0.8
O=C(O)c1cc(S(=O)(=O)N2CCCCCC2)c(Cl)cc1Cl,96,-3.2,-17,27,109,i,1
Fc1ccc(C2=CC(c3ccco3)n3nnnc3N2)cc1 (configuration not stated),98,·,·,·,·,i,1.2
COc1ccc(OC)c(-c2cc(C3CCN(c4ncccc4[N+](=O)[O-])CC3)[nH]n2)c1,82,-2.0,6,-16,105,i,0.99
O=C(NNc1ccccc1F)C1CCC1,113,·,·,·,·,i,0.97
Oc1ccc(/C=N/NC(=S)Nc2cccnc2)cc1,100,·,·,·,·,i,0.89
COC(=O)c1ccccc1NC(=O)NCCc1ccccc1OC,96,·,3,-26,99,i,0.95
CC(=O)N1Cc2ccccc2CC1C(=O)N1CCN(c2ccccc2)CC1 (configuration not stated),101,·,5,·,·,i,0.87
CN1CCN(CC#CCn2c3ccccc3c3ccccc32)CC1,68,-0.8,-6,·,·,i,0.85
Cc1cc(C)c2[nH]c(=O)c(CN(Cc3cccs3)C(=S)NCc3ccco3)cc2c1,130,0.5,1,37,129,i,0.64
O=C(NCc1ccco1)[C@@H]1CCCN1C(=O)c1cccs1,102,-1.1,1,41,105,·,·
Cc1cc(-c2nn(C)c(=O)c3ccccc23)cc(C)c1O,104,·,·,·,·,i,1.1
C=CCn1c(SCC(=O)NC2CCCCC2)nnc1C1CCCCC1,102,-0.5,-5,-14,68,i,0.97
Cc1nn(CC#N)c(=O)n1-c1ccccc1,97,-3.0,-2,-19,70,i,0.92
CCOC(=O)c1c(N)sc2c1CCCC2,92,-0.3,-4,0,123,i,0.87
O=C(Nc1ccc(N2CCOCC2)cc1)c1cc(-c2ccncc2)nc2ccccc12,97,·,·,·,·,i,0.94
CCCC(=Nc1ccccc1)C1=C(O)C(C(=O)OC)C(C)(C)CC1=O (configuration not stated),99,-2.6,-5,·,·,i,1.1
COc1ccc(C(=O)N2CCOC2CNC(=O)C(=O)NCc2ccc3c(c2)OCO3)cc1 (configuration not stated),107,·,3,·,·,i,0.91
NNc1nc2ccc(F)cc2s1,0.3*,-0.6,1,-7,75,i,1.2
C#C[C@]1(O)CC[C@H]2[C@@H]3CCc4cc(O)ccc4[C@H]3CC[C@@]21C,96,-0.1,-5,-95,99,i,0.88
Cc1cccc(C(=O)NC2CCN(C(=S)NCc3ccco3)CC2)c1,99,-1.8,-20,3,118,i,0.87
CCC(C)(C)NC(=O)C(c1cccs1)N(C(=O)c1ccn[nH]1)c1cccc(OC)c1 (configuration not stated),102,·,2,-53,102,i,0.98
Cn1cc(SCC(=O)N2CCOCC2)c2ccccc21,99,-1.9,2,·,·,i,0.8
COc1cc(C(=O)NNC(=S)NC(=O)c2ccc(Cl)cc2)cc(OC)c1OC,107,-1.7,-5,-13,132,i,0.58
Cc1cccc(COCC(CC(C)C)N2CCN(C(=O)c3ccc(C(F)(F)F)cc3)CCC2=O)c1 (configuration not stated),116,-2.0,8,10,94,i,0.95
Cc1cccc2cncc(OCc3nnc(SC(F)F)n3C)c12,102,·,0,-7,140,i,0.95
CCOC(=O)c1[nH]c(C)c(C(=O)NCc2cccnc2)c1C,93,-1.5,-12,·,·,i,0.84
Cc1cc(Oc2ccc(=O)n(C)n2)nc(Oc2ccc(=O)[nH]n2)n1,95,-2.0,5,·,·,i,1.1
COc1cccc(C(=O)CN2C3=NCCCN3c3ccccc32)c1,108,-1.5,-8,-21,97,i,0.84
COc1ccc(-c2csc(CCN3N=C(C)CC3=O)n2)cc1,96,·,-1,50,118,i,1
Cn1nnnc1SCc1ccccc1[N+](=O)[O-],102,-1.3,-3,·,·,i,0.99
CCOC(=O)CN(C(=O)Cn1nnc(-c2ccc(OC)cc2)n1)C(C(=O)NC1CCCC1)c1ccc(F)cc1 (configuration not stated),108,0.5,-4,-4,141,i,0.87
N#C/C(=C\c1cn(-c2ccccc2)nc1-c1cc2ccccc2o1)c1nc2ccccc2[nH]1,102,1.7,-5,-30,129,i,1.3
COc1ccc(CC(=O)OCn2nnc3ccccc3c2=O)cc1,113,0.2,-4,-2,155,i,0.92
Cc1nnc(SCC(=O)N2CCOCC2)[nH]c1=O,102,-0.4,-3,0,145,i,0.91
O=S1(=O)C[C@@H](N2CCOCC2)[C@H](N2CCOCC2)C1,107,-2.6,-2,·,·,i,1.1
Cc1ccc(S(=O)(=O)Nc2c(C)n(C)n(-c3ccccc3)c2=O)cc1,106&109,-1.5,-4&7,-46&-9,91&117,i,0.97&1
COc1ccc(OC)c(Nc2nc(-c3sc(NC(=O)C(C)(C)C)nc3C)cs2)c1,97,0.8,0,7,128,i,0.67
Cc1onc(-c2c(F)cccc2Cl)c1C(=O)NC1=NCCS1,100,-1.4,-13,·,·,i,0.96

# High-throughput results (PubChem BioAssay)
